Ecoli rRNA inh: inhibitors of bacterial rRNA selective over humanized ribosomes; E. coli WT GFP vs humanized-ribosome RFP mutants, fluorescence, 24 h; active compounds read low; DMSO median 0, no signal -100; GFP signal change (wild-type ribosome), % (no concentration beside the values); actives 1.6% (n = 350,000);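 active = significant combined selectivity score with lowered wild-type GFP, culture density cut under 30%, mutant RFP and density less affected; inactive = any of these conditions unmet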; note: one replicate is shown; some compounds called inactive have numbers as strong as hits
Ecoli rRNA inh OD600: recorded beside Ecoli rRNA inh, whose call it bears; OD600 change, %; measured here: OD600 growth;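 optical density of the mix in the first replicate; 0 = DMSO median and -100 = no signal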
Ecoli rRNA inh RFP: recorded beside Ecoli rRNA inh, whose call it bears; RFP signal change, %; measured here: RFP humanized mutant strains;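 first replicate; 0 = DMSO median and -100 = no signal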
Starred values were filed as active, the others as inactive. The list is partial. The share of hits here may be higher or lower than overall.

Results for C[C@@H]1CCCCO[C@@H](CN(C)C(=O)Cc2ccccc2)[C@@H](C)CN([C@H](C)CO)C(=O)c2cc(NC(=O)Nc3ccccc3)ccc2O1 ?
Ecoli rRNA inh: 2; Ecoli rRNA inh OD600: -7; Ecoli rRNA inh RFP: 1.7

How did C[C@@H]1CN([C@H](C)CO)C(=O)c2cc(NC(=O)Cc3ccccc3)ccc2O[C@@H]1CN(C)C(=O)Nc1cccc2ccccc12 do in these assays?
Ecoli rRNA inh: -4; Ecoli rRNA inh OD600: -2; Ecoli rRNA inh RFP: -0.2

Results for CC(C)NC(=O)N(C)C[C@@H]1Oc2c(NS(=O)(=O)c3ccc(F)cc3)cccc2C(=O)N([C@@H](C)CO)C[C@H]1C ?
Ecoli rRNA inh: 2; Ecoli rRNA inh OD600: 2; Ecoli rRNA inh RFP: 2.4

How did Cc1ccccc1-c1cnc2c(c1)C(=O)N([C@H](C)CO)C[C@@H](C)[C@@H](CN(C)Cc1ccccc1F)O2 do in these assays?
Ecoli rRNA inh: 3; Ecoli rRNA inh OD600: 10; Ecoli rRNA inh RFP: 2.6

How did C[C@@H]1CN([C@@H](C)CO)C(=O)c2cc(NC(=O)Nc3cccc4ccccc34)ccc2O[C@H]1CN(C)C(=O)Nc1ccc(F)cc1 do in these assays?
Ecoli rRNA inh: 3; Ecoli rRNA inh OD600: -4; Ecoli rRNA inh RFP: 0.2

Results for CN(Cc1ccccc1)C(=O)c1csc(COCCO)n1 ?
Ecoli rRNA inh: 19; Ecoli rRNA inh OD600: 16; Ecoli rRNA inh RFP: 1.7

Results for COc1ccc(C(C(=O)NC(C)(C)C)n2c(COc3ccc(C)cc3)nc3ccccc32)cc1 (stereo unspecified) ?
Ecoli rRNA inh: -2; Ecoli rRNA inh OD600: 6; Ecoli rRNA inh RFP: -3.3

Results for C[C@@H]1CN([C@H](C)CO)S(=O)(=O)c2ccc(C3=CCCCC3)cc2O[C@@H]1CN(C)C(=O)Cc1cccnc1 ?
Ecoli rRNA inh: -6; Ecoli rRNA inh OD600: -22; Ecoli rRNA inh RFP: 4.0

What do the screens show for `COCC#Cc1ccc([C@H]2[C@H]3CN(C(=O)C4CCOCC4)CC(=O)N3[C@H]2CO)cc1`?
Ecoli rRNA inh: 2; Ecoli rRNA inh OD600: 6; Ecoli rRNA inh RFP: -0.5

How did COc1cccc(-c2ccc3c(c2)O[C@@H](CN(C)CC2CC2)[C@@H](C)CN([C@H](C)CO)S3(=O)=O)c1 do in these assays?
Ecoli rRNA inh: 5; Ecoli rRNA inh OD600: 8; Ecoli rRNA inh RFP: 1.7

What do the screens show for `COc1cccc(C#Cc2ccc([C@@H]3[C@@H](CO)N4C(=O)CN(C(C)=O)C[C@@H]34)cc2)c1`?
Ecoli rRNA inh: 2; Ecoli rRNA inh OD600: -5; Ecoli rRNA inh RFP: 4.4

What do the screens show for `O=C(NCc1ccco1)c1ccc(-c2ccc(F)c(F)c2)c2ccoc12`?
Ecoli rRNA inh: -31; Ecoli rRNA inh OD600: -61; Ecoli rRNA inh RFP: -5.4

What do the screens show for `Cn1cc(CC(=O)Nc2ccc(Oc3cccnc3)cc2)c2ccccc21`?
Ecoli rRNA inh: -12; Ecoli rRNA inh OD600: -30; Ecoli rRNA inh RFP: 9.7

What do the screens show for `COC(=O)[C@]12C[C@H](CC(=O)N3CCOCC3)C(=O)N(CCc3ccc(OC)c(OC)c3)C1=C[C@H](C(C)(C)C)O[C@@H]2C`?
Ecoli rRNA inh: 5; Ecoli rRNA inh OD600: -4; Ecoli rRNA inh RFP: -1.7

What do the screens show for `COc1ccc(NC(=O)N[C@H]2CC[C@@H](CCNC(=O)c3cc(Cl)cc(Cl)c3)O[C@@H]2CO)cc1`?
Ecoli rRNA inh: 2; Ecoli rRNA inh OD600: 7; Ecoli rRNA inh RFP: 0.9

How did COc1ccc(NC(=O)N(C)C[C@@H]2Oc3ncc(-c4cccc(OC)c4)cc3C(=O)N([C@H](C)CO)C[C@@H]2C)cc1 do in these assays?
Ecoli rRNA inh: -2; Ecoli rRNA inh OD600: -9; Ecoli rRNA inh RFP: 2.0

Results for COc1ccc([C@H]2CC=CC[C@H](C)Oc3ccccc3C(=O)N(C)[C@@H](C)C(=O)N2)c(OC)c1 (mixture of isomers) ?
Ecoli rRNA inh: 0; Ecoli rRNA inh OD600: -8; Ecoli rRNA inh RFP: 3.2

How did CC(C)c1cc(C(=O)NCCc2cccs2)c(N)s1 do in these assays?
Ecoli rRNA inh: -7; Ecoli rRNA inh OD600: 1; Ecoli rRNA inh RFP: 3.4

What do the screens show for `CNC(=O)C[C@H]1CC[C@H]2[C@@H](COC[C@@H](O)CN2Cc2ccccc2F)O1`?
Ecoli rRNA inh: -1; Ecoli rRNA inh OD600: 6; Ecoli rRNA inh RFP: -1.8

What do the screens show for `O=C(N[C@@H]1CC[C@H](CCn2cc(C3(O)CCCC3)nn2)O[C@H]1CO)C1CC1`?
Ecoli rRNA inh: 2; Ecoli rRNA inh OD600: 4; Ecoli rRNA inh RFP: 0.0

What do the screens show for `COc1ccc(CN(C)C[C@@H]2Oc3c(NC(=O)Nc4ccccc4)cccc3C(=O)N([C@H](C)CO)C[C@H]2C)cc1`?
Ecoli rRNA inh: -4; Ecoli rRNA inh OD600: -9; Ecoli rRNA inh RFP: -2.2

How did C[C@H]1CN([C@@H](C)CO)C(=O)c2cccc(NC(=O)C3CCCCC3)c2O[C@H]1CN(C)Cc1ccccc1 do in these assays?
Ecoli rRNA inh: -1; Ecoli rRNA inh OD600: -6; Ecoli rRNA inh RFP: 0.9

How did C[C@H]1CN([C@@H](C)CO)C(=O)c2cccc(NC(=O)c3ccncc3)c2O[C@H]1CN(C)Cc1ccc(C(=O)Nc2ccccc2N)cc1 do in these assays?
Ecoli rRNA inh: 7; Ecoli rRNA inh OD600: 7; Ecoli rRNA inh RFP: 0.6

How did COCc1cccc(-c2csc(C(C)(O)c3cccc(F)c3)n2)c1 (stereo unspecified) do in these assays?
Ecoli rRNA inh: -52; Ecoli rRNA inh OD600: -78; Ecoli rRNA inh RFP: -19

How did COc1ccccc1NC(=O)N[C@H]1CC[C@@H](CCn2cc(C3(O)CCCC3)nn2)O[C@H]1CO do in these assays?
Ecoli rRNA inh: 1; Ecoli rRNA inh OD600: -5; Ecoli rRNA inh RFP: 0.5

What do the screens show for `C[C@@H]1CN([C@H](C)CO)C(=O)c2cc(-c3cccnc3)cnc2O[C@H]1CN(C)S(C)(=O)=O`?
Ecoli rRNA inh: -5; Ecoli rRNA inh OD600: 5; Ecoli rRNA inh RFP: -2.4

What do the screens show for `CO[C@@H]1CN(C)C(=O)c2cc(NC(=O)Nc3cccc(F)c3)ccc2OC[C@@H](C)N(C(=O)C2CC2)C[C@@H]1C`?
Ecoli rRNA inh: -11; Ecoli rRNA inh OD600: -7; Ecoli rRNA inh RFP: 8.2

What do the screens show for `C[C@H](C(=O)N(C)C[C@H]1OCc2ccccc2-c2ccccc2C(=O)N([C@@H](C)CO)C[C@H]1C)c1ccccc1`?
Ecoli rRNA inh: 1; Ecoli rRNA inh OD600: 3; Ecoli rRNA inh RFP: -1.3

Results for CO[C@@H](C(=O)N(C)C[C@H]1OCc2ccccc2-c2c(n(C)c3ccccc23)C(=O)N([C@@H](C)CO)C[C@@H]1C)c1ccccc1 ?
Ecoli rRNA inh: 0; Ecoli rRNA inh OD600: -2; Ecoli rRNA inh RFP: 3.1

Results for O=C(C[C@H]1C=C[C@H](NC(=O)c2ccc(F)cc2)[C@@H](CO)O1)NCCc1ccncc1 ?
Ecoli rRNA inh: 2; Ecoli rRNA inh OD600: 0; Ecoli rRNA inh RFP: -1.1

Results for C[C@H](CO)N1C[C@H](C)[C@@H](CN(C)C)OCCCC[C@H](C)Oc2ccc(NS(=O)(=O)c3ccccc3)cc2C1=O ?
Ecoli rRNA inh: 1; Ecoli rRNA inh OD600: 1; Ecoli rRNA inh RFP: -0.7

Results for C[C@@H]1CN([C@@H](C)CO)C(=O)c2cc(NS(=O)(=O)c3cn(C)cn3)ccc2O[C@@H](C)CCCCO[C@H]1CN(C)Cc1ccc(C(F)(F)F)cc1 ?
Ecoli rRNA inh: -2; Ecoli rRNA inh OD600: -8; Ecoli rRNA inh RFP: -0.2

How did COC(=O)[C@@]12C[C@@H](CC(=O)NCc3ccc(C)o3)C(=O)N(CCc3ccc(OC)c(OC)c3)C1=CCC(C)(C)C2 do in these assays?
Ecoli rRNA inh: 1; Ecoli rRNA inh OD600: 4; Ecoli rRNA inh RFP: 5.1

What do the screens show for `C[C@H]1CN([C@@H](C)CO)S(=O)(=O)c2ccc(C#CC3(O)CCCC3)cc2O[C@@H]1CN(C)C(=O)c1cccnc1`?
Ecoli rRNA inh: 0; Ecoli rRNA inh OD600: 7; Ecoli rRNA inh RFP: 0.6

What do the screens show for `Cc1noc(C)c1S(=O)(=O)Nc1ccc2c(c1)C(=O)N([C@@H](C)CO)C[C@@H](C)[C@H](CN(C)S(=O)(=O)c1cn(C)cn1)O2`?
Ecoli rRNA inh: 0; Ecoli rRNA inh OD600: 15; Ecoli rRNA inh RFP: 0.7

How did COCC(=O)Nc1ccc2c(c1)OC[C@@H](C)N(Cc1ccccc1F)C[C@H](C)[C@H](OC)CN(C)C2=O do in these assays?
Ecoli rRNA inh: -6; Ecoli rRNA inh OD600: -6; Ecoli rRNA inh RFP: -1.3

What do the screens show for `C[C@H]1CN([C@@H](C)CO)C(=O)c2cc(C#Cc3ccccc3)cnc2O[C@H]1CN(C)C(=O)CCN1CCCCC1`?
Ecoli rRNA inh: 6; Ecoli rRNA inh OD600: 9; Ecoli rRNA inh RFP: 1.1

What do the screens show for `C[C@H]1CN([C@@H](C)CO)C(=O)Cc2cc(NC(=O)Nc3cccc4ccccc34)ccc2O[C@H]1CN(C)Cc1ccc(-c2ccccc2)cc1`?
Ecoli rRNA inh: 0; Ecoli rRNA inh OD600: 7; Ecoli rRNA inh RFP: 3.2

How did COc1cc(-c2cc3nc(NC4CCCCC4)ccn3n2)cc(OC)c1OC do in these assays?
Ecoli rRNA inh: -34; Ecoli rRNA inh OD600: -49; Ecoli rRNA inh RFP: -9.1

Results for C[C@H]1CCCCO[C@H](CN(C)C(=O)Nc2cccc3ccccc23)[C@@H](C)CN([C@@H](C)CO)C(=O)c2cc(NS(=O)(=O)c3ccc(Cl)cc3)ccc2O1 ?
Ecoli rRNA inh: -1; Ecoli rRNA inh OD600: 14; Ecoli rRNA inh RFP: -0.7

What do the screens show for `CC(C)C#Cc1ccc2c(c1)O[C@H](CN(C)C(=O)C1CCCCC1)[C@@H](C)CN([C@H](C)CO)S2(=O)=O`?
Ecoli rRNA inh: -2; Ecoli rRNA inh OD600: -18; Ecoli rRNA inh RFP: 5.3

What do the screens show for `Cc1cc(Br)cn2c(CC(C)(C)C)c(-c3cccc(Cl)c3)nc12`?
Ecoli rRNA inh: 24; Ecoli rRNA inh OD600: 17; Ecoli rRNA inh RFP: 3.4

What do the screens show for `CO[C@H]1CN(C)C(=O)c2ccc(NC(=O)C3CC3)cc2OC[C@@H](C)N(C(=O)c2cccnc2)C[C@@H]1C`?
Ecoli rRNA inh: 2; Ecoli rRNA inh OD600: 1; Ecoli rRNA inh RFP: -0.6

How did COCC(=O)NC[C@@H]1[C@@H](c2ccc(C3=CCCC3)cc2)[C@@H](CO)N1C(=O)C1CC1 do in these assays?
Ecoli rRNA inh: -3; Ecoli rRNA inh OD600: -3; Ecoli rRNA inh RFP: -4.6

Results for C[C@@H]1CN([C@H](C)CO)C(=O)c2cc(NC(=O)Cn3cnnn3)ccc2O[C@H]1CN(C)S(=O)(=O)c1ccc(F)cc1 ?
Ecoli rRNA inh: 7; Ecoli rRNA inh OD600: 8; Ecoli rRNA inh RFP: -1.7

What do the screens show for `C[C@@H]1CN([C@@H](C)CO)C(=O)c2cccc(NC(=O)c3cnccn3)c2O[C@@H]1CN(C)Cc1ccc(-c2ccccc2)cc1`?
Ecoli rRNA inh: -8; Ecoli rRNA inh OD600: -23; Ecoli rRNA inh RFP: 3.8

How did C[C@@H]1CN([C@H](C)CO)C(=O)c2cc(NC(=O)CCCN(C)C)ccc2O[C@@H]1CN(C)Cc1ccc(Oc2ccccc2)cc1 do in these assays?
Ecoli rRNA inh: 1; Ecoli rRNA inh OD600: 5; Ecoli rRNA inh RFP: 0.8
